NOMO-1 viab – STK33 inhibitor candidate reducing NOMO-1 cell viability. inhibition, % (test concentration not listed). actives 7.5% (n = 37,000). NOMO-1 AML viability, CellTiter-Glo luminescence, 72 h. AID 2330;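 active = most replicates above 80%; inconclusive = exactly half above 80%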;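 note: wells of about 30 µL received 25 nL stock; 0% = median of vehicle wells and 100% = reference inhibitor level; the first replicate is given; inactives centre near 10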
The depositor's hits bear a star; ? = inconclusive. An excerpt. The share of hits here may be higher or lower than overall.

1) COC(=O)C(Cc1c[nH]c2ccccc12)NS(=O)(=O)c1ccc(CNC(=O)c2ccccc2)s1 (configuration not stated)
- NOMO-1 viab = 115.2*
2) C[C@H]1CN([C@@H](C)CO)C(=O)Cc2cc(NC(=O)Cc3ccccc3)ccc2O[C@H]1CN(C)CC1CCCCC1
- NOMO-1 viab = 6.5
3) C[C@@H]1CN([C@@H](C)CO)C(=O)c2cccc(NC(=O)C3CCCCC3)c2O[C@@H]1CN(C)Cc1ccc(C(=O)O)cc1
- NOMO-1 viab = 30.7
4) COc1cccc(C(=O)COc2cccc(NC(=O)c3ccc([N+](=O)[O-])cc3)c2)c1
- NOMO-1 viab = 58.9
5) Cc1cc(C)nc(SCC(=O)Nc2ccc(S(=O)(=O)NC(C)(C)C)cc2)n1
- NOMO-1 viab = 32.4
6) CCc1c(O)cc(OC)c2c1O[C@H](C)CC2=O
- NOMO-1 viab = -6.9
7) Cc1cccc(Cn2c(NCC(C)O)nc3c2c(=O)n(C)c(=O)n3C)c1 (configuration not stated)
- NOMO-1 viab = 14.1
8) O=C(CCCN1C(=O)c2cccc3cccc(c23)C1=O)Nc1ccccc1Br
- NOMO-1 viab = 32.3
9) C[C@H](CO)N1C[C@H](C)[C@H](CN(C)C(=O)Nc2ccc(C(F)(F)F)cc2)Oc2ccc(NC(=O)Nc3ccccc3)cc2C1=O
- NOMO-1 viab = 85.9*
10) O=c1cc(O)c2sc3nc(-c4ccccc4)ccc3c2[nH]1
- NOMO-1 viab = 21.6
11) COc1ccc(-c2cc(=O)[nH]c(SCC(=O)Nc3ccc(Br)cc3)n2)cc1
- NOMO-1 viab = -16.4
12) CCC(C)[C@H](NC(=O)c1ccco1)C(=O)O (some centres not stated)
- NOMO-1 viab = -6.4
13) Cc1ccc(N(CC(=O)Nc2ccccc2F)S(C)(=O)=O)cc1Cl
- NOMO-1 viab = 9.3
14) C[C@H]1CN([C@@H](C)CO)C(=O)Cc2cc(NS(C)(=O)=O)ccc2O[C@@H]1CN(C)CC1CCCCC1
- NOMO-1 viab = 21.0
15) COc1ccc(NC(=O)Nc2cccc3c2O[C@@H](CN(C)Cc2ccc(C(=O)Nc4ccccc4N)cc2)[C@H](C)CN([C@@H](C)CO)C3=O)cc1
- NOMO-1 viab = 125.9*
16) Cn1c(SCC(=O)Nc2ccc([N+](=O)[O-])cc2)nc2ccccc21
- NOMO-1 viab = 17.9
17) C[C@H](CO)N1C[C@H](C)[C@H](CN(C)Cc2ccc(Cl)c(Cl)c2)Oc2ccc(NC(=O)Nc3cccc4ccccc34)cc2C1=O
- NOMO-1 viab = 16.9
18) COc1ccc(S(=O)(=O)Nc2ccc3c(c2)C(=O)N([C@H](C)CO)C[C@H](C)[C@H](CN(C)S(=O)(=O)c2c(C)noc2C)OCCCC[C@@H](C)O3)cc1
- NOMO-1 viab = 12.6
19) COc1ccc(NC(=O)N(C)C[C@@H]2Oc3c(NS(=O)(=O)c4ccc(OC)cc4)cccc3C(=O)N([C@H](C)CO)C[C@H]2C)cc1
- NOMO-1 viab = 3.9
20) O=C(CC1C(=O)NCCN1C(=O)Nc1ccccc1)Nc1cccc(Cl)c1 (configuration not stated)
- NOMO-1 viab = 24.5
21) C[C@@H]1CN([C@@H](C)CO)C(=O)c2cccc(NC(=O)Nc3ccc(F)cc3)c2O[C@@H]1CN(C)C
- NOMO-1 viab = -0.8
22) COc1cc(C(=O)NC(C)C(=O)O)cc(OC)c1OC (configuration not stated)
- NOMO-1 viab = 25.9
23) COc1ccc(CN(C)C[C@H]2Oc3c(NC(=O)NC(C)C)cccc3C(=O)N([C@@H](C)CO)C[C@H]2C)cc1
- NOMO-1 viab = 18.5
24) C[C@@H]1CN([C@H](C)CO)C(=O)c2cc(NC(=O)C3CCCCC3)ccc2O[C@H]1CN(C)S(=O)(=O)c1ccc(Cl)cc1
- NOMO-1 viab = 5.6
25) CCC(=O)N1CCN(c2ccc(Cl)cc2NC(=O)COc2ccc(C(C)(C)C)cc2)CC1
- NOMO-1 viab = 63.7

26) N#Cc1c(NC(=O)CSc2nc3c(c(C(F)(F)F)n2)CCCC3)sc2c1CCCC2
- NOMO-1 viab = 4.8
27) C[C@H](CO)N1C[C@H](C)[C@H](CN(C)Cc2ccc3c(c2)OCO3)Oc2c(NC(=O)Nc3ccccc3)cccc2C1=O
- NOMO-1 viab = 24.4
28) Cc1ccc(S(=O)(=O)N(C)C[C@@H]2Oc3ccc(NC(=O)Nc4ccc(F)cc4)cc3CC(=O)N([C@@H](C)CO)C[C@@H]2C)cc1
- NOMO-1 viab = 104.1*
29) C[C@H](CO)N1C[C@H](C)[C@@H](CN(C)C(=O)Nc2ccc(F)cc2)Oc2c(NC(=O)C3CCCCC3)cccc2C1=O
- NOMO-1 viab = 10.2
30) C[C@@H]1CN([C@H](C)CO)C(=O)Cc2cc(NC(=O)Nc3ccc(F)cc3)ccc2O[C@@H]1CN(C)C(=O)Nc1ccc2c(c1)OCO2
- NOMO-1 viab = 10.5
31) C[C@H](CO)N1C[C@H](C)[C@@H](CN(C)Cc2ccc(Cl)c(Cl)c2)Oc2c(NC(=O)Nc3ccc(C(F)(F)F)cc3)cccc2C1=O
- NOMO-1 viab = 108.6*
32) C[C@@H]1CN([C@H](C)CO)C(=O)c2cc(NC(=O)Nc3ccc(F)cc3)ccc2O[C@H]1CN(C)C
- NOMO-1 viab = 14.3
33) O=C(CC1(O)C(=O)N(Cc2ccc(Cl)cc2)c2ccc(Cl)cc21)c1ccccn1 (configuration not stated)
- NOMO-1 viab = 114.6*
34) C[C@H]1CN([C@@H](C)CO)C(=O)Cc2cc(NS(=O)(=O)c3ccccc3)ccc2O[C@H]1CN(C)C(=O)Nc1ccccc1
- NOMO-1 viab = 25.5
35) C[C@@H]1CN([C@@H](C)CO)C(=O)c2cccc(NS(=O)(=O)c3ccc(F)cc3)c2O[C@@H]1CN(C)Cc1ccc(C(=O)Nc2ccccc2N)cc1
- NOMO-1 viab = 128.7*
36) COc1cc([N+](=O)[O-])ccc1NC(=O)CN(C)S(=O)(=O)c1ccc(C)cc1
- NOMO-1 viab = 0.0
37) CC(C)(C)C(=O)CSc1ncnc2sc3c(c12)CCCC3
- NOMO-1 viab = 19.6
38) C[C@H](CO)N1C[C@H](C)[C@@H](CN(C)Cc2ccc(Oc3ccccc3)cc2)Oc2ccc(NS(=O)(=O)c3cn(C)cn3)cc2C1=O
- NOMO-1 viab = 14.2
39) C[C@@H]1CN([C@@H](C)CO)C(=O)Cc2cc(NC(=O)Nc3ccccc3)ccc2O[C@@H]1CN(C)S(=O)(=O)c1ccc(Cl)cc1
- NOMO-1 viab = 77.1
40) O=C(CCCN1C(=O)c2ccccc2C1=O)Nc1cc(Cl)cc(Cl)c1
- NOMO-1 viab = -25.5
41) C[C@@H]1CN([C@H](C)CO)C(=O)c2cc(NC(=O)NC3CCCCC3)ccc2O[C@H]1CN(C)S(=O)(=O)c1ccc(F)cc1
- NOMO-1 viab = -5.8
42) C[C@H](CO)N1C[C@H](C)[C@@H](CN(C)Cc2ccc3c(c2)OCO3)Oc2c(NC(=O)Nc3ccc(C(F)(F)F)cc3)cccc2C1=O
- NOMO-1 viab = 103.8*
43) C[C@H](CO)N1C[C@H](C)[C@H](CN(C)Cc2ccncc2)Oc2ccc(NC(=O)Cc3ccccc3)cc2C1=O
- NOMO-1 viab = 98.1*
44) C[C@@H]1CN([C@@H](C)CO)C(=O)c2cccc(NC(=O)C3CC3)c2O[C@H]1CN(C)CC1CC1
- NOMO-1 viab = 12.2
45) C[C@H]1CN([C@@H](C)CO)C(=O)Cc2cc(NS(=O)(=O)c3ccc(F)cc3)ccc2O[C@H]1CN(C)C(=O)Nc1cccc2ccccc12
- NOMO-1 viab = 12.6
46) COc1ccc(S(=O)(=O)Nc2ccc3c(c2)C(=O)N([C@@H](C)CO)C[C@@H](C)[C@H](CN(C)S(=O)(=O)c2ccc(F)cc2)O3)cc1
- NOMO-1 viab = -18.2
47) COC(=O)c1ccc(Cl)c(NC(=O)CSc2nnc(-c3ccc(Cl)cc3)o2)c1
- NOMO-1 viab = 13.8
48) C[C@@H]1CN([C@@H](C)CO)C(=O)c2cc(NC(=O)CCCCCC(=O)Nc3ccccc3N)ccc2O[C@@H]1CN(C)Cc1ccc(-c2ccccc2)cc1
- NOMO-1 viab = 46.2
49) C[C@@H]1CN([C@@H](C)CO)C(=O)c2cc(NC(=O)Cc3cn(C)c4ccccc34)ccc2O[C@@H]1CN(C)CC1CCCCC1
- NOMO-1 viab = 52.7
50) C[C@@H]1CCCCO[C@@H](CN(C)S(=O)(=O)c2ccccc2)[C@@H](C)CN([C@H](C)CO)C(=O)c2cc(NC(=O)CCC(F)(F)F)ccc2O1
- NOMO-1 viab = 31.7

51) Cc1nnc(SCC(=O)Nc2ccc(C)c([N+](=O)[O-])c2)s1
- NOMO-1 viab = 15.2
52) C[C@@H]1CN([C@@H](C)CO)C(=O)Cc2cc(NC(=O)c3ccncc3)ccc2O[C@@H]1CN(C)C
- NOMO-1 viab = 39.1
53) COc1ccc(S(=O)(=O)Nc2ccc3c(c2)C(=O)N([C@@H](C)CO)C[C@H](C)[C@H](CN(C)Cc2ccc(C(=O)O)cc2)O3)cc1
- NOMO-1 viab = 22.9
54) C[C@H]1CN([C@@H](C)CO)C(=O)c2cccc(NS(=O)(=O)c3ccccc3)c2O[C@@H]1CN(C)S(=O)(=O)c1cn(C)cn1
- NOMO-1 viab = -9.3
55) C[C@@H]1CN([C@@H](C)CO)C(=O)c2cc(NC(=O)CCC(F)(F)F)ccc2O[C@H]1CN(C)Cc1ccc2c(c1)OCO2
- NOMO-1 viab = 5.9
56) COc1cc(OC)c(C2=NOC(C(=O)Nc3c(C)nn(Cc4ccc(F)cc4)c3C)C2)cc1Cl (configuration not stated)
- NOMO-1 viab = 31.1
57) CC(=O)Nc1ccc(S(=O)(=O)NC2=NCN(CCOC(=O)c3ccccc3)CN2)cc1
- NOMO-1 viab = -5.8
58) COc1ccc(CN(C)C[C@@H]2OCCCC[C@@H](C)Oc3ccc(NC(=O)Nc4ccc(F)cc4)cc3C(=O)N([C@H](C)CO)C[C@@H]2C)cc1
- NOMO-1 viab = 11.6
59) O=C(CSc1nnnn1-c1ccccc1)Nc1ccc(-c2ccc([N+](=O)[O-])cc2)cc1
- NOMO-1 viab = -14.3
60) C[C@@H]1O[C@@H](O[C@@H]2[C@@H](O)[C@H](C)O[C@@H](OC[C@H]3O[C@@H](Oc4c(-c5ccc(O)cc5)oc5cc(O)cc(O)c5c4=O)[C@H](O)[C@@H](O)[C@H]3O)[C@@H]2O)[C@H](O)[C@H](O)[C@H]1O
- NOMO-1 viab = 4.2
61) COC(=O)c1c(C)cc2c(c(C)c1=O)OC1(C2)C(C)CCC2C(C)(C)OC(=O)C=CC21C (configuration not stated)
- NOMO-1 viab = 106.9*
62) Cc1ccc(S(=O)(=O)Nc2ccc3c(c2)CC(=O)N([C@H](C)CO)C[C@H](C)[C@H](CN(C)C(=O)NC(C)C)O3)cc1
- NOMO-1 viab = 13.5
63) C[C@@H]1CN([C@H](C)CO)C(=O)c2cccc(NC(=O)c3nc4ccccc4s3)c2O[C@H]1CN(C)S(=O)(=O)c1cccs1
- NOMO-1 viab = 24.0
64) O=C1CCC(O)c2cccc(O)c21 (configuration not stated)
- NOMO-1 viab = 7.4
65) C[C@@H]1CN([C@@H](C)CO)C(=O)c2cc(NC(=O)c3ccncc3)ccc2O[C@@H]1CN(C)C(=O)Nc1cccc2ccccc12
- NOMO-1 viab = 12.0
66) Oc1ccc(Br)cc1C1Nc2ccccc2S1 (configuration not stated)
- NOMO-1 viab = 28.8
67) CSCC[C@H](NC(=O)[C@H](Cc1ccccc1)NC[C@@H](NC[C@@H](N)CS)C(C)C)C(=O)O
- NOMO-1 viab = -22.4
68) C[C@@H]1CN([C@H](C)CO)C(=O)c2cccc(N(C)C)c2O[C@@H]1CN(C)Cc1ccc(C(=O)Nc2ccccc2N)cc1
- NOMO-1 viab = 126.9*
69) COC(=O)c1sc(SCCOC(=O)c2ccccc2Cl)c2c1CC(C)(C)CC2=O
- NOMO-1 viab = 6.0
70) COc1ccc(NC(=O)Nc2cccc3c2O[C@@H](CN(C)Cc2ccccc2)[C@@H](C)CN([C@H](C)CO)C3=O)cc1
- NOMO-1 viab = 54.4
71) CC1=CC=C(C=O)C(C)(C)C1OC(=O)/C=C(\C)CO (configuration not stated)
- NOMO-1 viab = 4.6
72) C[C@@H]1CN([C@H](C)CO)C(=O)Cc2cc(NC(=O)CCC(F)(F)F)ccc2O[C@H]1CN(C)S(=O)(=O)c1cccs1
- NOMO-1 viab = 6.5
73) C[C@@H]1CN([C@H](C)CO)C(=O)c2cccc(NC(=O)Nc3ccccc3)c2O[C@@H]1CN(C)Cc1ccc(Cl)c(Cl)c1
- NOMO-1 viab = ?
74) C[C@H]1CN([C@@H](C)CO)C(=O)Cc2cc(NS(=O)(=O)c3ccc(F)cc3)ccc2O[C@@H]1CN(C)Cc1ccccc1
- NOMO-1 viab = 30.6
75) Cc1ccc(S(=O)(=O)Nc2ccc3c(c2)C(=O)N([C@H](C)CO)C[C@@H](C)[C@@H](CN(C)C(=O)Nc2ccc(C(F)(F)F)cc2)O3)cc1
- NOMO-1 viab = 6.0

76) CC1(C)OC(=O)C(=Cc2ccc[nH]2)C(=O)O1
- NOMO-1 viab = 49.4
77) Cc1noc(C)c1NC(=O)Nc1ccc2c(c1)C(=O)N([C@H](C)CO)C[C@@H](C)[C@@H](CN(C)C(=O)NC1CCCCC1)O2
- NOMO-1 viab = -5.9
78) CC1CCc2c(sc(NC(=O)COc3cccc4ccccc34)c2C#N)C1 (configuration not stated)
- NOMO-1 viab = 6.8
79) C[C@@H]1CCCCO[C@H](CN(C)S(C)(=O)=O)[C@@H](C)CN([C@H](C)CO)C(=O)c2cc(NC(=O)C3CCCCC3)ccc2O1
- NOMO-1 viab = -31.1
80) Cc1ccc(N2CC(C(=O)Nc3ccc(S(=O)(=O)NCC4CCCO4)cc3)CC2=O)cc1 (configuration not stated)
- NOMO-1 viab = 12.7
81) C[C@@H]1CN([C@H](C)CO)C(=O)Cc2cc(NC(=O)Cc3cn(C)c4ccccc34)ccc2O[C@@H]1CN(C)Cc1ccncc1
- NOMO-1 viab = 19.0
82) CC(C(=O)Nc1cc(C(F)(F)F)ccc1Cl)n1cc([N+](=O)[O-])cn1 (configuration not stated)
- NOMO-1 viab = 19.3
83) CNC[C@@H]1Oc2c(NC(=O)C3CCOCC3)cccc2C(=O)N([C@H](C)CO)C[C@H]1C
- NOMO-1 viab = -14.6

Screening data (PubChem BioAssay)
